Bioassay records as filed in PubChem BioAssay.
Rce1 inh: inhibitors of yeast Ras-converting enzyme | Q03530 | yeast membranes, quenched prenylated peptide cleavage fluorescence | calls only | 290,000 tested, 0.27% active | AID 2563;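 active = fall in fluorescence gain of 50% or more versus controls, with final raw signal at or below 3038400; inconclusive = same 50% fall but final raw signal above 3038400; inactive = fall in fluorescence gain under 50%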;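 note: plate controls were neutral control wells for no effect and wells lacking membranes for full effect; tested at 10 µM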
Target sequence (Q03530 whole entry, looked up): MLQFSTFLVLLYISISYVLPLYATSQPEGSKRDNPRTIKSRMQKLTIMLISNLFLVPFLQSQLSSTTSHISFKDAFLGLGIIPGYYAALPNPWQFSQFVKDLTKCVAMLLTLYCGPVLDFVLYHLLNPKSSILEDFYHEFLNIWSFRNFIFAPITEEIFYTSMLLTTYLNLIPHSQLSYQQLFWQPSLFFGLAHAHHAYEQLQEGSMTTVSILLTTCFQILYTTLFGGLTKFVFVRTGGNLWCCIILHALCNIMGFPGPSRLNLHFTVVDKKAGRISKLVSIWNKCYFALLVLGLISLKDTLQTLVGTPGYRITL
MT1-MMP act inh: inhibitors of human MT1-MMP activation; P50281; HT1080 RFP-PRO-GFP cells, GFP/RFP ratio fluorescence, overnight; percent of plate control window, DMSO zero; GFP/RFP ratio change, % at 20 µM; 360,000 tested, 0.061% active; AID 651647;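 active = GFP/RFP ratio change of at least 30% with cell ATP level not reduced by more than half and red fluorescence within 50% of control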; note: strong numbers were not always called active
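Compound: 20 µM single dose, 1% DMSO / System: HT1080 RFP-PRO-GFP cells / Controls: DMSO and RFP-L50D-GFP cell wells / Read-out basis: GFP/RFP fluorescence ratio / Schedule: overnight compound exposure at 37 °C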
CSC inhib: blocks cancer stem cells | cancer stem cell-like cells viability, luminescence | inhibition, % at 7.5 µM | 300,000 tested, 1.1% active;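 active = mean at 75% or more and at least half the replicates too; inconclusive = mean and replicates disagree; tested in HMLE shEcad cells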;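 note: 0% = median of negative and 100% = median of positive control wells; the first replicate is given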
eIF4H inh: inhibitors of RNA binding by human eIF4H. eIF4H fluorescence polarization binding assay. inhibition, % at 35 µM. 290,000 tested, 0.94% active. AID 2012;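 active = 50% or more with normal probe brightness, or confirmed in later tests; inconclusive = above 50% with abnormal brightness, or retests that disagree; inactive = below 50% or failed in later tests; about a fifth of its hits are not listed in these tables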;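 note: calls also rest on retests at 20 µM and on dose response follow-up; 0% = protein and probe with vehicle and 100% = probe without protein; strong numbers were not always called active; many hits fall short of the cut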
HIV Env fusion: blocks HIV Env-driven cell-cell fusion | 360,000 tested, 1.1% active | inhibition, % at 12.3 µM | HeLa-JRFL Env/CEM21 cell fusion, luciferase;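 active = mean replicate inhibition score of at least 50 and every replicate individually at or above 50; inconclusive = only one of the two criteria met; inactive = mean below 50 and not all replicates reaching 50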;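 note: 0% = plate neutral controls and 100% = maraviroc near 300 nM; one replicate is shown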
Yeast UUG start: alters start codon recognition fidelity in yeast. S. cerevisiae UUG-firefly luciferase reporter, luminescence/redox ratio. activity score, % at 18.7 µM. 350,000 tested, 0.13% active;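 active = replicate mean at a twofold rise or more, about +100% in these data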;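 note: firefly luciferase made from a UUG start codon reports start codon fidelity; reporter light over untreated wells divided by growth signal over untreated wells; some hits fall short of that in this replicate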
PABP FP inh: blocks human PABP binding to poly(A) RNA. fluorescence polarization. P11940. inhibition, % at 35 µM. 290,000 tested, 1% active;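 active = 50% or more with normal probe brightness, or confirmed in later tests; inconclusive = above 50% with abnormal brightness, or retests that disagree; inactive = below 50% or failed in later tests; about a fifth of its hits are not listed in these tables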;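 note: calls also rest on retests at 20 µM and on dose response follow-up; controls were probe without protein and protein plus probe with vehicle; some compounds called inactive have numbers as strong as hits; many hits fall short of the cut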
eIF4H inh retest: also measured in eIF4H inh; calls as there; inhibition, %; compound at 20 µM; confirmation average;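 mean of two retest wells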
PABP FP inh retest: further read-out of PABP FP inh, marked with its call; inhibition, %; compound at 20 µM; confirmation repeats;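 mean of two retest wells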
MT1-MMP act inh RFP: second read-out of MT1-MMP act inh, no call of its own (marks repeat the call); RFP signal change, %; measured here: RFP expression control read;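 0 = vehicle wells; hits needed this value within 50% of zero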
* = called active by the depositor; i = inactive; u = inconclusive; x = no result given.

SMILES	Rce1 inh	MT1-MMP act inh	MT1-MMP act inh RFP	CSC inhib	eIF4H inh	HIV Env fusion	Yeast UUG start	PABP FP inh	others
Cc1ccc(S(=O)(=O)NC(CC(=O)N2CCc3ccccc32)c2ccco2)cc1 (stereo not given)	i	1	-1	6	-4	x	-12	1
Fc1ccc(-c2cn3cc(C(F)(F)F)cc(Cl)c3n2)cc1	i	0	2	1	0	i	-20	-2
CCOCCOC(=O)C1=C(C)NC(=O)NC1c1ccc2c(c1)OCO2 (stereo not given)	i	0	4	-15	-8	9	-10	-4
Cc1ccc(N2CCN(S(=O)(=O)c3cccs3)CC2C)cc1 (stereo not given)	i	7	-15	14	-3	7	-6	0
C=CCOC(=O)C1=C(C)Nc2[nH]c(=O)[nH]c(=O)c2C1c1cccc(OC)c1 (stereo not given)	i	x	x	x	-6	x	x	-8
O=C1NCCN1Cc1ccc(F)cc1	i	3	5	-7	-1	-1	-1	7
COCCCNc1oc(/C=C/c2ccccc2)nc1C#N	i	2	-1	-7	-1	-65	-10	-5
COCCCn1c(=O)c2sccc2n2c(CCCC(=O)NCc3ccc(OC)cc3)nnc12	i	1	0	-4	-4	3	-5	4
CC1(C)SC[C@H](C(=O)Nc2cccc(Cl)c2)N1C=O	i	1	6	13	-12	-6	x	6
CCOc1ccc(NS(=O)(=O)c2ccc3[nH]c(=O)[nH]c3c2)cc1	x	-1	-1	3	2	6	-19	8
O=C1c2ccccc2C(=O)N1CCCc1nc(-c2ccccc2)no1	i	-1	8	-10	-6	x	-29	-4
COc1ccc(C(C)=O)cc1COC(=O)c1cccnc1Cl	i	2	1	-7	-22	9	x	1
Cc1nc2cc(-c3ccccc3)sc2c(=O)n1N	i	-1	1	13	-3	64*	x	3
COc1ccc(OC)c2c1sc(=NC(=O)c1ccco1)n2C	i	5	5	-9	-7	-30	-6	1
CC(C)=C(C)c1cc2nc(NCCCN(C)C)n(C)c(=O)c2s1	x	-3	2	x	x	4	-20	x
CCc1nnc(SCC(=O)Nc2ccc(NC(C)=O)cc2)n1-n1cccc1	i	3	5	9	x	-2	x	x
Oc1ccc(N2Cc3ccccc3C2)cc1	i	6	-1	0	0	x	-12	6
O=[N+]([O-])c1ccc(Cc2ccccn2)cc1	x	1	4	-14	x	x	-14	x
CCS(=O)(=O)c1ccc2oc(SCC(=O)NC34CC5CC(CC(C5)C3)C4)nc2c1	i	4	-5	-10	7	u	-16	-2
O=C1C=C(Nc2ccccc2C(=O)O)c2ccccc2C1=O	i	20	3	52	-10	-4	-70	36
Cc1ccc(NC(=O)Nc2ccc3c(c2)OCO3)nc1	x	4	-3	4	12	-61	x	-7
CN(C)S(=O)(=O)N1CCC(Oc2cccc(C(=O)NCCCC3CCCC3)c2)CC1	i	-2	-28	x	-18	-6	-13	-4
CCCC(=O)Nc1ccc(NC(=O)c2ccccn2)cn1	i	-3	0	11	-3	-23	-35	4
Cc1nc2ncccn2c1-c1csc(NCc2ccco2)n1	i	3	3	-3	73	-22	-21	15*	eIF4H inh retest=47;PABP FP inh retest=59*
C/C=C(/C)C(=O)Nc1cccc(C2=NOC3(C2)C[C@@H](C(N)=O)N(C(=O)CC(c2ccccc2)c2ccccc2)C3)c1 (stereo not given in full)	i	1	-2	-7	-2	6	-14	4
The results go on.
SMILES	Rce1 inh	MT1-MMP act inh	MT1-MMP act inh RFP	CSC inhib	eIF4H inh	HIV Env fusion	Yeast UUG start	PABP FP inh	others
COc1ccc(N(CC(=O)NCCc2ccccc2)C(=O)c2csnn2)cc1OC	i	3	0	x	-11	-21	-8	0
C/C(=N\NC(=O)c1ccc(N2CCCC2=O)cc1)c1ccccc1	x	1	5	-8	-2	-18	x	10
O=C(CCNc1ccccc1)c1ccc2c(c1)OCO2	i	8	3	0	7	-195	-21	-15
Cc1cccc(C(C)(C)C)c1OCCOCCN1CCCC1	i	-3	0	-6	-1	-4	x	-2
O=C(CSc1nc(-c2ccco2)cc(C(F)(F)F)n1)Nc1cccnc1	i	2	-4	28	-6	x	-11	-1
CCOc1c2ccc(C(=O)NCCCCc3ccccc3)cc2nn1C	i	-1	4	3	-8	8	-24	3
Cc1ccc(NC(=S)NCc2ccc(F)cc2)c(C)c1	i	-1	-4	-8	-10	8	-23	-14
COc1ccc(CC(=O)Nc2cc(F)ccc2F)cc1S(=O)(=O)N1CCOCC1	x	-6	-1	x	x	10	-14	x
OCC1(CCOc2ccccc2)CCN(Cc2cc(Cl)ccc2O)CC1	i	-2	4	23	-1	4	-15	2
CCCn1c(SCC(=O)N(CC)CC)nnc1-c1ccncc1	i	0	3	-11	-4	-2	x	-7
O=C(COC(=O)C1CC1)NCc1ccccc1Cl	i	-1	2	-7	5	-2	-7	-14
CCSc1nc2ccccc2n1CC(=O)O	i	-2	-1	9	-7	14	-14	-3
CN1CCC(=NNC(=O)COc2ccc(Cl)cc2)CC1	i	3	5	10	10	-13	x	-12
O=S(=O)(c1ccc(Cl)c(Cl)c1)N1CCc2nc3ccccc3n2CC1	i	-3	1	x	-3	-12	-3	1
CC(C)c1ccc(NC(=S)Nc2ccc3[nH]c(=O)[nH]c3c2)cc1	i	2	-2	11	-1	-16	-22	5
O=C(N/N=C/c1cc([N+](=O)[O-])ccc1O)c1cccc(NC(=O)c2cccc(Cl)c2)c1	i	0	-3	14	-11	15	-19	1
CCOC(=O)c1cccc(NC(=O)c2ccc(NC(=O)c3ccco3)cc2)c1	i	3	0	-7	-8	17	-14	2
Cc1ccc(-n2nc(C(=O)O)cc2-c2ccccc2)cc1	i	-5	3	-5	-4	10	-20	-5
O=C(c1ccc(Cl)nc1)N1CCC(Cc2ccccc2)CC1	i	-1	-6	-11	3	22	20	8
Cc1ccc2cc(CN(CCN3CCCC3)C(=O)Nc3ccccc3)c(=O)[nH]c2c1C	i	0	1	-1	-11	x	-9	-11
Cc1cccc(N2CCN(C(=S)NC3CCCCC3)CC2)c1C	i	5	0	-10	-10	-25	x	4
COc1ccc(CCNC(=O)c2ccc3ccccc3n2)cc1OC	i	3	-1	-3	0	25	13	-9
Cn1c(O)c(C=Nc2ccc(N3CCOCC3)cc2)c(=O)n(C)c1=S	i	-5	3	x	u	-118	x	3
CCc1nnc(NC(=O)c2nc3nccc(C)n3n2)s1	i	2	5	-1	-4	-10	-9	-2
CC(CNS(=O)(=O)c1ccccc1)Sc1ncccn1 (stereo not given)	i	0	0	8	0	-11	-2	5

Three structures out of the list, arranged by molecular weight, lowest first:
SMILES	Rce1 inh	MT1-MMP act inh	MT1-MMP act inh RFP	CSC inhib	eIF4H inh	HIV Env fusion	Yeast UUG start	PABP FP inh	others
CCSc1nc2ccccc2n1CC(=O)O	i	-2	-1	9	-7	14	-14	-3
Cc1ccc(-n2nc(C(=O)O)cc2-c2ccccc2)cc1	i	-5	3	-5	-4	10	-20	-5
CC(C)c1ccc(NC(=S)Nc2ccc3[nH]c(=O)[nH]c3c2)cc1	i	2	-2	11	-1	-16	-22	5

(cont.)
SMILES	Rce1 inh	MT1-MMP act inh	MT1-MMP act inh RFP	CSC inhib	eIF4H inh	HIV Env fusion	Yeast UUG start	PABP FP inh	others
CCC(CC)c1nnc(NC(=O)/C=C/c2ccco2)s1	i	-3	1	x	86	-65	-8	10	eIF4H inh retest=-3;PABP FP inh retest=2
CCCCC(=O)NC(=S)Nc1cc(C(=O)O)ccc1OC	i	0	1	-9	-4	-12	7	7
COC(=O)COc1ccc2c(c1C)O/C(=C\c1ccco1)C2=O	i	-7	2	1	9	-4	3	-3
CC1(C)CC(=O)C=C(NNC(=O)OC(C)(C)C)C1	i	6	6	-10	-1	-7	x	15
c1cn(-c2ccc(-c3ccnc4ncnn34)cc2)cn1	i	5	5	-4	-2	-18	-25	6
COc1cccc(-c2cc3nc(-c4ccccc4)cc(N4CCN(C(=O)c5ccoc5)CC4)n3n2)c1	x	-4	-21	x	x	17	-11	x
O=C1CCCC2=C1Sc1ccccc1N2	i	-11	0	-14	43	-65	-29	36
CCOP(=O)(OCC)C(Nc1ccccc1)c1ccc2c(c1)OCO2 (stereo not given)	i	-6	-2	-5	x	16	x	x
CCOC(=O)c1ccc(CNC(=O)CCC(=O)O)cc1	i	-3	2	8	-3	-16	-17	7
COC(=O)C1CCN(C(=O)C2CCC(=O)N(CCCc3ccccc3)C2)CC1 (stereo not given)	i	5	0	-6	1	-3	-11	1
O=C(CN(Cc1ccccc1Cl)S(=O)(=O)c1ccc(Cl)cc1)N/N=C/c1ccc(C(=O)O)cc1	i	-1	-1	x	3	-20	-11	20
Cc1ccc(-n2ncc3c(SCc4ccccn4)ncnc32)c(C)c1	i	-3	-15	31	5	-7	x	6
C=CCCC(=O)Nc1nc(C)c(-c2csc(Nc3cccc(OC)c3)n2)s1	i	4	-6	41	3	0	-5	-4
Cc1cc(Cl)c(S(=O)(=O)Nc2ccc3c(c2)OCO3)cc1OCC(=O)NC1CCCCC1	i	-3	-11	-7	14	-59	-11	-4
COc1ccc(-c2nc3n(c2C)CCC3)cc1	i	4	6	-1	-4	-7	x	-2
N#CC(C(=O)NC1CCCCC1)c1nc2ccccc2nc1N1CCN(c2ccccc2F)CC1 (stereo not given)	x	-12	0	x	6	-69	-28	7
O=C(NNC(=O)C1CC1c1ccccc1)Nc1cccc(Cl)c1 (stereo not given)	i	-4	-3	x	-1	56*	-11	-24
NC(=O)c1ccsc1NC(=O)c1cccs1	i	4	10	-3	x	-72	2	x
O=C1Nc2ccccc2C(O)(C(=O)NC2CC2)N1c1ccc(Cl)c(Cl)c1 (stereo not given)	i	0	6	-8	3	-50	0	10
COc1ccc(CCN(C)C(=O)c2cc(-c3ccc(C)cc3)nc3ccccc23)cc1OC	i	-4	-6	3	21	1	-8	50
COc1cccc(NC(=O)CSc2ccc3nnc(-c4cccnc4)n3n2)c1	i	-1	0	-7	2	0	-12	1
CCOC(=O)N1CCC(Nc2ncnc3c2cnn3-c2ccccc2)CC1	i	3	-2	1	-5	36	6	17
COc1cc(OC)cc(C(=O)N[C@H](C(=O)OCC(=O)c2ccc3c(c2)NC(=O)CO3)C(C)C)c1	i	-2	0	-6	1	-3	-1	0
COc1ccc(N2CCN(C(=O)c3cc(-c4cc(OC)ccc4OC)nc4ccccc34)CC2)cc1	i	19	-7	11	2	21	2	-3
Cc1ccc(/C=C/c2onc(C)c2S(=O)(=O)N2CCC(C(=O)NC(C)(C)C)CC2)cc1	i	-5	-11	20	-14	-5	-2	-10
New compounds follow.
SMILES	Rce1 inh	MT1-MMP act inh	MT1-MMP act inh RFP	CSC inhib	eIF4H inh	HIV Env fusion	Yeast UUG start	PABP FP inh	others
CC(=O)Nc1ccc(-c2ccnc3c2CC(C(=O)NCc2cccc(Cl)c2)O3)cc1 (stereo not given)	x	15	3	x	x	-121	-18	x
CC1=C(C(=O)c2ccccc2)C(c2cccc([N+](=O)[O-])c2)NC(=S)N1 (stereo not given)	i	-2	-6	-7	0	11	x	-6
O=C(COC(=O)COc1ccccc1)NCc1ccco1	i	8	5	-4	x	-4	-12	x
CC(C)(C)c1ccc(N2C(=O)CSC2c2cccnc2)cc1 (stereo not given)	i	2	-10	0	-4	-2	-6	1
C[C@H](CO)N1C[C@H](C)[C@@H](CN(C)C(=O)Nc2ccc(C(F)(F)F)cc2)Oc2ccc(NC(=O)Nc3ccc4c(c3)OCO4)cc2C1=O	x	8	3	x	x	-8	-23	x
CCOC(=O)c1cnn(-c2sc(C(=O)OCC)c(C)c2C(=O)OCC)c1N	i	-6	1	x	x	x	-13	x
Cc1nc2cc(-c3sccc3-n3cccc3)nn2c(C)c1C	i	-5	-2	8	3	-112	-20	10
CC(NC(=O)C1(c2cccs2)CCOCC1)c1ccccc1 (stereo not given)	i	2	7	x	0	x	-7	8
